miR-21 reporter: miR-21 reporter, rising signal; Potency, µM (top dose mostly 38.3 µM), for the others: top-dose reporter change, positive = more light; 340,000 tested, under 10 active; HeLa miR-21 FLuc reporter, luciferase, 48 h; active = well fitted rising curve with a large enough effect; inconclusive = small, poorly fitted or top-dose-only effect; inactive = no such curve, though single readings can be large or run the other way;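 also: % of control where 0% means no effect; miR-21 action dims this reporter so a rising signal means less miR-21 action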
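HeLa miR-21-FLuc reporter line, endogenous miR-21; 2000 cells/well in DMEM/10% FBS; compound titration up to ~40uM final, 48 h, 37 degree Celsius; luciferase detection reagent, 15 min lysis, CCD luminescence.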
Rango release inh: inhibition of RanGTP-driven Rango-importin beta dissociation; Biochemical FRET Rango-importin beta, RanGTP-induced dissociation; Potency, µM (series often up to 46.1 µM), without a hit: at the highest dose activity change, negative = inhibition; 340,000 compounds, 0.071% hits; AID 540253; active means falling FRET ratio curve, often poorly fitted, with flat reads before Ran was added; inconclusive means other falling curves, or compound fluorescence or quenching; inactive means flat or rising ratio curve;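 also: potency is read from the fitted curve at half-maximal effect; % of control where 0% means no effect; nearly all actives have a fitted effect of over 45% in size; -100% = wells without RanGTP and RCC1; the record marks most hits as doubtful in a second field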
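FRET read at 45 min, room temperature: inhibitors block the CFP/YFP signal rise when RanGTP (0.6 uM Ran, 2 mM GTP, 0.2 uM RCC1) frees Rango (0.1 uM) from importin beta (0.25 uM). Pre-read after 5 min compound exposure flags interference.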
GLA inh pH 4.5: inhibitors of human alpha-galactosidase A at pH 4.5; P06280; purified enzyme, 4-MU-alpha-Gal fluorescence, pH 4.5; activity change, negative = inhibition, % at 105 µM; 230,000 tested, under 10 active; inconclusive = small, poorly fitted or top-dose-only inhibition, or a rising curve; inactive = flat fitted curve, though single readings scatter; no compound was filed as active;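 also: 0% = full activity with enzyme and -100% = basal without enzyme; dose as in the result columns while the protocol names 77 µM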
Rango-impB inh: prevents formation of the Rango-importin beta complex; 340,000 compounds, 0.031% hits; Potency, µM (doses to about 92.2 µM), for the others: top-dose inhibition of complex formation; Q14974; Rango CFP/YFP FRET sensor + importin beta, 45 min; active = rising FRET ratio curve, often small or poorly fitted; inconclusive = mostly compound fluorescence or quenching in the first reads; inactive = flat curves in all reads;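 also: potency is read from the fitted curve at half-maximal effect; 0% = DMSO wells and 100% = buffer wells lacking importin beta; nearly all actives have a fitted effect of over 15% in size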
Target sequence (Q14974 whole entry, looked up): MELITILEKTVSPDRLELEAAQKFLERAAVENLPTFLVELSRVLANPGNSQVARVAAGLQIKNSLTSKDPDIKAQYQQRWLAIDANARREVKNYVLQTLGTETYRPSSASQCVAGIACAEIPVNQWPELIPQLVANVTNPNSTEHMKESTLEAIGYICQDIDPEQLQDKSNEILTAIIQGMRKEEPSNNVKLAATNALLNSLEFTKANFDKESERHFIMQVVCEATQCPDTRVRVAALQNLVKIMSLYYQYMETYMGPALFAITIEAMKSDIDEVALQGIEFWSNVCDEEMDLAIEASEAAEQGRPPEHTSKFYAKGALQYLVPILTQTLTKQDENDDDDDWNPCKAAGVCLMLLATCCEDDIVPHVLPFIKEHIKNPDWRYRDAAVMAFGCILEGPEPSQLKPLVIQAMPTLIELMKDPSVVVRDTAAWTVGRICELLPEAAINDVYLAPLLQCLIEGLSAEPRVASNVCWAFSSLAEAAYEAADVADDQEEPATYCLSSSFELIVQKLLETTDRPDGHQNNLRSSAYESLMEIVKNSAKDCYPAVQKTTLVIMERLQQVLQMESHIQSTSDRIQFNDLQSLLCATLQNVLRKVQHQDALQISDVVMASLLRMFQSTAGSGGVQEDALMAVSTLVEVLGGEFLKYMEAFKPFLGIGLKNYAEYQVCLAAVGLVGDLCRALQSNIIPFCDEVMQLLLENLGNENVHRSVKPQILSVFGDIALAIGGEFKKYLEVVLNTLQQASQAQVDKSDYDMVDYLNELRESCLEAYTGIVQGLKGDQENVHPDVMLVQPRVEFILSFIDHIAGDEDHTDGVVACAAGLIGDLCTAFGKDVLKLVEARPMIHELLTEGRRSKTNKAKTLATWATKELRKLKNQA
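FRET biosensor (snurportin 1 IBB flanked by EYFP and cerulean), 50 nM, with compound 5 min, then 0.125 microM importin beta in PBS, 1 mM DTT, 0.02% Tween-20, 0.1% BSA. CFP/YFP ratio read after 45 min at room temperature; pre-read flags interference.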
An asterisk follows results filed as active; ? = inconclusive; nt = no result given; & = joins results of further samples. Only part of the results is shown; count on the stated rates, not on these rows.

entry	canonical_smiles	miR-21 reporter	Rango release inh
1	CN(CC(=O)Nc1ccccc1Cl)C(=O)c1ccc(N2CCCCCC2)c([N+](=O)[O-])c1	nt	1%
2	O=C(Nc1ccc(N2CCOCC2)cc1N1CCOCC1)c1cccs1	-1%	25%
3	O=C(NCc1cccs1)C(Cc1ccccc1)NS(=O)(=O)c1cccs1 (centres undefined)	-2%	-12%
4	COC(=O)[C@H](Cc1ccccc1)NC(=O)Cn1ccc(NC(=O)OCc2ccccc2)nc1=O	nt	15%
5	CCn1cc(CN2CCC(C(=O)Nc3cccc(-c4cscn4)c3)CC2)cn1	-1%	3%
6	O=C(COc1ccccc1)N1CCN(S(=O)(=O)c2ccc(Br)cc2)CC1	-2%	31%
7	O=C(O)CCN1C(=O)C2CCCCC2C1=O (centres undefined)	3%	-4%
8	CCc1nc2sc3c(O)cc(=O)[nH]c3c2cc1C	-2%	21%
9	O=C(CCc1ccccc1)NNC(=O)Nc1ccc(F)c(Cl)c1	2%	0%
10	COc1cccc(-c2nn(Cc3ccccc3)cc2CO)c1	-34%	-16%
11	CCc1c(C)nc2ncnn2c1N1CCC(C(=O)N2CCN(c3ccccc3)CC2)CC1	-2%	nt
12	COc1cc(C2CC(=O)c3c(O)cc(O)cc3O2)ccc1O (centres undefined)	-6%	-1%

entry	GLA inh pH 4.5	Rango-impB inh
1	nt	5.3%
2	3	13%
3	0	2.4%
4	nt	0.4%
5	nt	0.0%
6	nt	3.0%
7	-9	-0.1%
8	6	0.5%
9	nt	5.1%
10	nt	-2.8%
11	4	nt
12	-6	-0.2%

A draw from above in order of molecular weight, descending:
entry	canonical_smiles	miR-21 reporter	Rango release inh
6	O=C(COc1ccccc1)N1CCN(S(=O)(=O)c2ccc(Br)cc2)CC1	-2%	31%
9	O=C(CCc1ccccc1)NNC(=O)Nc1ccc(F)c(Cl)c1	2%	0%
12	COc1cc(C2CC(=O)c3c(O)cc(O)cc3O2)ccc1O (centres undefined)	-6%	-1%

entry	GLA inh pH 4.5	Rango-impB inh
6	nt	3.0%
9	nt	5.1%
12	-6	-0.2%

The listing continues:
entry	canonical_smiles	miR-21 reporter	Rango release inh
13	CCOc1ccc(S(=O)(=O)NC2CC2)cc1C(N)=O	0%	-22%
14	CCc1cc(=S)n2c([nH]c3ccccc32)c1C#N	10%	?
15	CCN1C(=O)/C(=C\N(C)C)S/C1=N\S(=O)(=O)c1ccccc1	-7%	1%
16	CCN1/C(=C\C=C2\C(=O)N(C)C(=S)N2C)Sc2ccccc21	-10%	8%
17	CCOc1ccc(C(=O)Nc2cc(NC(=O)c3ccc(OCC)c(Cl)c3)cc(C(=O)O)c2)cc1Cl	0%	-2%
18	COc1cccc(NS(=O)(=O)c2c(C)cc(C)cc2C)c1	8%	0%
19	COc1ccc(NC(=O)CSc2nnnn2C)c([N+](=O)[O-])c1	6%	5%
20	CN(C)c1cccc(C(=O)N/N=C/c2ccccc2F)c1	-8%	-14%
21	O=C(Nc1ccc(Oc2ccccc2)nc1)C1CCCCN1Cc1cccc(O)c1 (centres undefined)	19%	0%
22	COC(=O)CSc1nnc2c3c4c(sc3nc(-n3nc(C)cc3C)n12)COC(C)(C)C4	-6%	-4%
23	O=C(CNC(=O)N1CC(=O)Nc2ccccc21)Nc1nccs1	3%	-3%
24	O=c1oc(C2(O)CCCCC2)cc2ccc(/C=C/c3ccc(F)cc3)cc12	nt	0%

entry	GLA inh pH 4.5	Rango-impB inh
13	0	3.9%
14	-6	?
15	-7	-0.4%
16	-1	-0.3%
17	-5	0.6%
18	0	0.1%
19	-3	3.8%
20	3	-1.2%
21	nt	-2.1%
22	8	?
23	nt	-2.7%
24	nt	4.7%

(listing goes on)
entry	canonical_smiles	miR-21 reporter	Rango release inh
25	COc1cccc(OC)c1OCCCSc1nc(C)cc(=O)[nH]1	0%	16%
26	COc1ccc2c(c1)CCc1c-2nc2ccccc2c1N1CCOCC1	5%	-9%
27	CN(C(=O)CSc1nnnn1-c1ccccc1)C1CCCCC1	-28%	2%
28	CCOCCCNC(=O)C(c1ccc(Cl)cc1)N1CCN(C(=O)c2ccco2)CC1 (centres undefined)	-7%	-13%
29	Cc1ccccc1NC(=S)NNC(=O)c1cccc(Br)c1	-40%	-16%
30	CCCC(=O)NC(=S)Nc1nc(-c2ccc(OC)cc2)cs1	-24%	12%
31	Cc1c(NC(=O)CN2CC(C)OC(C)C2)c(=O)n(-c2ccccc2)n1C (centres undefined)	0%	15%&14%
32	Cc1cc(C)n(CC(=O)NNC(=O)COc2ccc(Br)cc2F)n1	nt	7%
33	CCOC(=O)NC1(C(F)(F)F)C(=O)NC(C)=C1C#N (centres undefined)	-2%	0%
34	CCCC(=O)Nc1ccc(NC(=O)c2ccccc2)nc1	-13%	11%
35	COCCN(C(=O)c1cc(-c2ccccc2Cl)nc2ccccc12)c1c(N)n(CC(C)C)c(=O)[nH]c1=O	nt	11%
36	CC(=O)Nc1ccc(S(=O)(=O)NCCC(=O)NCCCc2ccccc2)cc1	nt	-6%

entry	GLA inh pH 4.5	Rango-impB inh
25	2	-2.2%
26	16	?
27	2	-0.3%
28	-13	0.5%
29	-5	-1.5%
30	-3	?
31	-8	0.3%&-5.8%
32	nt	4.2%
33	9	-0.4%
34	2	?
35	nt	-3.8%
36	nt	-2.2%

Following part:
entry	canonical_smiles	miR-21 reporter	Rango release inh
37	CC(C)=CC1C(C(=O)NCCOc2ccccc2)C1(C)C (centres undefined)	8%	29%
38	CC(NS(=O)(=O)c1cn(C)c(=O)n(C)c1=O)c1ccccc1 (centres undefined)	-9%	-6%
39	CCCN1CCN(C(=O)C2CCN(S(=O)(=O)c3ccc4c(c3)oc(=O)n4C)CC2)CC1	-1%	7%
40	CCS(=O)(=O)N1Cc2ccccc2CC1C(=O)Nc1cc(S(C)(=O)=O)ccc1Cl (centres undefined)	0%	9%
41	Cc1cc(NC(=O)CSc2nc3ccccc3[nH]2)n(-c2ccccc2)n1	9%	14%
42	CC(=O)NCCc1nc2ccccc2n1Cc1ccc(Cl)cc1	0%	-11%
43	O=C(Nc1ccccc1)C1CC(=O)n2c(nc3ccccc32)N1 (centres undefined)	3%	1%
44	Cc1ccc(CNC(=O)/C(C#N)=C/c2ccc(C)s2)cc1	0%	-5%
45	CCc1ccccc1NC(=O)NC1CC2CCC(C1)N2Cc1cccs1 (centres undefined)	-3%	27%
46	CCOc1ccccc1NC(=S)Nc1ccc(S(N)(=O)=O)cc1	0%	-5%
47	O=C(CN(C(=O)c1csnn1)c1cccc(C(F)(F)F)c1)NC1CCCC1	2%	5%
48	COCCn1c(-c2ccc(OC)cc2)cnc1N	-14%	-9%

entry	GLA inh pH 4.5	Rango-impB inh
37	nt	-1.8%
38	nt	0.3%
39	1	-6.7%
40	nt	0.0%
41	2	-1.8%
42	1	-0.6%
43	5	-0.7%
44	1	1.0%
45	3	-2.5%
46	7	1.0%
47	nt	1.4%
48	-3	-0.1%

Other compounds:
entry	canonical_smiles	miR-21 reporter	Rango release inh
49	Nc1nnc(SCC(=O)Nc2nnc(-c3ccccc3)o2)s1	nt	21%
50	CCOC(=O)c1[nH]c(C)c(C(=O)OCc2ccc(C)cc2)c1C	-3%	13%
51	N#C/C(=C\c1ccc(-c2cccc([N+](=O)[O-])c2)o1)C(=O)N1CCOCC1	-4%	5%
52	N#Cc1c(N)nc2c(c1-c1ccncc1)CCCC2	-3%	22%
53	COc1ccccc1-c1cc(-c2ccccc2)nc(SCC(=O)O)c1C#N	-14%	14%
54	CCOc1ccc(NC(=O)CSc2ncn[nH]2)cc1	-2%&-5%	-2%
55	CC1(C)C(O)=C(c2nc3ccccc3[nH]2)C(=N)N1c1ccccc1	-9%	?
56	COc1ccc(N2C(=O)CC(c3ccccc3)CC2=O)cc1	nt	-2%
57	COc1c(Cl)cc(-c2noc(C)c2C(=O)NC(C)C)cc1Cl	-9%	13%
58	CC(=O)c1cccc(OCC(=O)N(C)CC(=O)NCc2ccco2)c1	nt	-1%
59	CN(C)S(=O)(=O)c1ccc(NC(=O)c2cc3ccccc3o2)cc1	-12%	-16%
60	CCOC(=O)CC1C(=O)NCCN1C(=O)Nc1ccccc1 (centres undefined)	-8%	-9%

entry	GLA inh pH 4.5	Rango-impB inh
49	nt	3.4%
50	nt	6.4%
51	-4	-0.2%
52	0	-0.5%
53	nt	0.4%
54	nt	-0.4%
55	7	0.6%
56	nt	-2.9%
57	-3	3.3%
58	nt	?
59	-4	2.9%
60	4	-0.3%

New compounds follow.
entry	canonical_smiles	miR-21 reporter	Rango release inh
61	COc1ccc(CN2CCN(C(C)C)C(CCO)C2)cc1Cn1cncn1 (centres undefined)	-1%	-5%
62	O=C1CCC2=C(CCCC2=O)N1	-1%	7%
63	CCCCNC(=S)NCCN1CCCCC1	-5%	-1%
64	COc1ccc(N(CC(=O)Nc2cccc(N(C)S(C)(=O)=O)c2)S(=O)(=O)c2ccc(C)cc2)cc1	0%	18%
65	CC1Sc2ccc(S(=O)(=O)N3CCC(C(=O)NCC(C)c4ccccc4)CC3)cc2NC1=O (centres undefined)	20%	-3%
66	CON(C)c1nc(C2CCCCC2)c2cc(C)ccc2n1	nt	1%
67	Oc1c(Br)cc(C=Nc2ccc3nc(-c4ccccc4)[nH]c3c2)c(O)c1Br	-15%	?
68	O=C(CCCOc1ccc(Cl)cc1Cl)Nc1cc(S(=O)(=O)N2CCOCC2)ccc1N1CCOCC1	nt	2%
69	COc1ccc(Nc2nc(C)cc(C)c2C#N)c(OC)c1	0%	-7%
70	CCN(Cc1nc2ccccc2c(=O)[nH]1)C(=O)COc1ccccc1-c1ccccc1	nt	19%
71	O=C(CN(Cc1ccccc1)C(=O)CCC(=O)Nc1nccs1)NCc1ccccc1	0%	10%
72	OC(CNCc1ccc(-c2ccccc2)cc1)c1ccccc1 (centres undefined)	17%	0%
73	COc1ccc(C(=O)c2c(C)c3cc(C)ccc3n2CC(O)CN2CCOCC2)cc1 (centres undefined)	5%	7%
74	C[n+]1cnn2c1SCC1(COC1)C2	-2%	12%
75	CC(C)(C)c1ccc(-n2nc(C(N)=O)c(O)cc2=O)cc1	-1%	-13%

entry	GLA inh pH 4.5	Rango-impB inh
61	-4	0.8%
62	7	0.3%
63	-3	-3.5%
64	-11	2.4%
65	nt	0.2%
66	nt	3.4%
67	-4	?
68	nt	0.1%
69	nt	0.6%
70	nt	-1.7%
71	nt	0.0%
72	-5	-2.9%
73	-3	2.7%
74	-3	-1.9%
75	6	3.5%

By substructure: the compounds so far with two or more sulfur atoms.
entry	canonical_smiles	miR-21 reporter	Rango release inh
3	O=C(NCc1cccs1)C(Cc1ccccc1)NS(=O)(=O)c1cccs1 (centres undefined)	-2%	-12%
15	CCN1C(=O)/C(=C\N(C)C)S/C1=N\S(=O)(=O)c1ccccc1	-7%	1%
16	CCN1/C(=C\C=C2\C(=O)N(C)C(=S)N2C)Sc2ccccc21	-10%	8%
22	COC(=O)CSc1nnc2c3c4c(sc3nc(-n3nc(C)cc3C)n12)COC(C)(C)C4	-6%	-4%
30	CCCC(=O)NC(=S)Nc1nc(-c2ccc(OC)cc2)cs1	-24%	12%
40	CCS(=O)(=O)N1Cc2ccccc2CC1C(=O)Nc1cc(S(C)(=O)=O)ccc1Cl (centres undefined)	0%	9%
46	CCOc1ccccc1NC(=S)Nc1ccc(S(N)(=O)=O)cc1	0%	-5%
49	Nc1nnc(SCC(=O)Nc2nnc(-c3ccccc3)o2)s1	nt	21%
64	COc1ccc(N(CC(=O)Nc2cccc(N(C)S(C)(=O)=O)c2)S(=O)(=O)c2ccc(C)cc2)cc1	0%	18%
65	CC1Sc2ccc(S(=O)(=O)N3CCC(C(=O)NCC(C)c4ccccc4)CC3)cc2NC1=O (centres undefined)	20%	-3%

entry	GLA inh pH 4.5	Rango-impB inh
3	0	2.4%
15	-7	-0.4%
16	-1	-0.3%
22	8	?
30	-3	?
40	nt	0.0%
46	7	1.0%
49	nt	3.4%
64	-11	2.4%
65	nt	0.2%

Screens: PubChem, National Center for Advancing Translational Sciences (NCATS)
